PKD1 inh = PKD1 (human) kinase inhibition; inhibition, %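 (about 10 µM by stock and volumes)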; PKD1 kinase fluorescence polarization assay; Q15139; AID 797; 200,000 compounds, 0.056% hits;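 active = inhibition of 50% or more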;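 also: controls were vehicle for no effect and a reference inhibitor for full effect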
INS promoter inh = TRM-6 insulin promoter activity inhibition; TRM-6 cells (human fetal islet line), insulin promoter-eGFP reporter, imaging; reporter expression induced with tamoxifen; inhibition, % at 2 µM; 130,000 compounds, 0.9% hits;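 active = inhibition above the mean plus 3 SD, with well images judged a real hit on visual review, cut at about 60% in these data, passing the limit was not always enough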
GALR2 agonist = activates the human galanin receptor 2. O43603. activation, %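 (tested at 5 µM)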. 140,000 compounds, 0.48% hits. GALR2-expressing cells, agonist activation read-out;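 active = above mean plus 3 SD of all compounds, about 5% in these data, not always enough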;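 also: 0% = vehicle buffer wells and 100% = reference agonist at full effect; tested in CHO reporter cells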
Target sequence (O43603 whole entry, looked up): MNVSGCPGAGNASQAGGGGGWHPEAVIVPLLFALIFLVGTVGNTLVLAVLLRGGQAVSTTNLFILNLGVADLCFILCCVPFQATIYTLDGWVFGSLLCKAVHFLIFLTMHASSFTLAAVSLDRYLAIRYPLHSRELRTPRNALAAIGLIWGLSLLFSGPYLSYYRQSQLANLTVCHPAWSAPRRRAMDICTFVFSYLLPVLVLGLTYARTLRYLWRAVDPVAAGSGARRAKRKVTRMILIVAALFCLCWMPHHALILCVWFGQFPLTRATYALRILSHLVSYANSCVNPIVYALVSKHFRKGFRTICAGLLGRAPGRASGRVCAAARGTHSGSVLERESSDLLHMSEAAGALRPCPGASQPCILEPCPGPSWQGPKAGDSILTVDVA
HSV augment = HSV replication enhancement; HSV replication augmentation in cells, fold increase; maximum fold increase; 220,000 compounds, 0.005% hits;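 active = peak rise of 1.5-fold or more in the series; tested in PC3 cells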;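 also: first round at 10 µM; read as green reporter fluorescence; hits show the peak of a series up to 25 µM; 1 = signal of infected wells without compound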
RGS16-Gao HTS = regulators of human RGS16-Galphao interaction | O15492+P09471 | bead-based flow cytometry RGS16-Galphao binding, fluorescence; actives lie on both sides | 220,000 compounds, 0.38% hits | binding response (% of control), % at 10 µM;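 active = below 25% or above 175%, edge rows of some plates excepted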;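 also: Galphao activated by GDP with aluminum fluoride before binding; 100% = wells without compound and 0% = beads without RGS; some results beyond the cut were filed as inactive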
Target sequence (O15492 whole entry, looked up): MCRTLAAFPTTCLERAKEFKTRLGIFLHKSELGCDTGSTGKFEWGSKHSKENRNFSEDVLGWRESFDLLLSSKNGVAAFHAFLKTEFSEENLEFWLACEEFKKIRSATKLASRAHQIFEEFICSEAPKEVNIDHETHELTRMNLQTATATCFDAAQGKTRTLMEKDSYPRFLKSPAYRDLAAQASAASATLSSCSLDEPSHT
Target sequence (P09471 whole entry, looked up): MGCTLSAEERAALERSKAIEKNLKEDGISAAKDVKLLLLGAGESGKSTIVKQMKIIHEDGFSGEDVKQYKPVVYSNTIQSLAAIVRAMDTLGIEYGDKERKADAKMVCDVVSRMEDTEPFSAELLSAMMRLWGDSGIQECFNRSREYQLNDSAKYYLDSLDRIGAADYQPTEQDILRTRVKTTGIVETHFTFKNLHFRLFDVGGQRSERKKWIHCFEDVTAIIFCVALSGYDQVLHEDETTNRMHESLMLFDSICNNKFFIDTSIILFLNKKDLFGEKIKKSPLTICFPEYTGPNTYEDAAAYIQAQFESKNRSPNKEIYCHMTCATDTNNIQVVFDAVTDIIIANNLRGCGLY
INS promoter inh cell count = also measured in INS promoter inh; calls as there; normalized cell count, %; measured here: cell count, toxicity; reference of the scale not given here;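 cells exposed to compound for 48 h; stained nuclei by imaging scaled within each plate; lower means fewer cells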
HSV augment primary fold = recorded beside HSV augment, whose call it bears; fold increase; compound at 10 µM; measured here: primary screen fold increase 10 uM; tested in PC3 cells;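 GFP signal in the first replicate; 1 = infected wells without compound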
An asterisk follows results filed as active; i = inactive; x = not tested or not shown.

No.	SMILES	PKD1 inh	INS promoter inh	INS promoter inh cell count	GALR2 agonist
1	CCn1nnnc1NCc1ccc(OCc2c(F)cccc2Cl)c(OC)c1	-1.8	-107.1	83.0	x
2	CCOC(=O)/C=C(\C)N1N=C(c2ccccc2)CC1c1ccccc1 (stereo not given)	1.6	-193.3	125.3	x
3	CCOc1ncccc1C(=O)OCC(=O)Nc1cccc(C(C)=O)c1	-0.5	-80.0	119.4	-1.1
4	COc1ccc(-c2ccnc3nc(Sc4ncc(C(F)(F)F)cc4Cl)nn23)cc1	7.5	x	x	-1.7
5	COc1cc(NC(=O)Cn2c(=O)n(-c3cccc(C)c3)c(=O)c3c(C)c(C)sc32)cc(OC)c1	-4.4	-53.6	108.5	0.7
6	CCCC(c1nnnn1C(C)(C)C)N1CCN(Cc2ccccc2)CC1 (stereo not given)	7.1	x	x	x
7	O=C(O)COc1ccccc1/C=C1\SC(=S)N(/N=C/c2ccccc2O)C1=O	-10.1	27.3	113.9	-0.7
8	Cc1nnsc1C(=O)Nc1ccc(Cl)cc1Cl	-3.5	9.3	127.5	-2.9
9	Cc1nc2cc(-c3ccccc3)nn2c(C)c1CCC(=O)N1CCN(c2ccccn2)CC1	-9.1	x	x	-1.1
10	O=P(Cc1cc(Br)cc(Br)c1OCCO)(c1ccccc1)c1ccccc1	x	x	x	x
11	CC(C)CC1CCCCC1OC(=O)C[N+]1(C)CCCCC1 (stereo not given)	-6.2	-80.5	46.9	x
12	O=C(CSc1nnnn1-c1ccc(O)cc1)c1cc2ccccc2o1	x	x	x	x

No.	HSV augment	HSV augment primary fold	RGS16-Gao HTS
1	i	0.8	99.6
2	i	1.01	103.2
3	i	0.9	102.3
4	i	1.04	97.9
5	i	0.7	107.8
6	i	0.92	112.5
7	i	0.98	109.8
8	i	0.97	100.1
9	i	0.87	104.2
10	i	1.01	105.7
11	i	1.06	96.2
12	i	0.93	109.7

(more compounds)
No.	SMILES	PKD1 inh	INS promoter inh	INS promoter inh cell count	GALR2 agonist
13	CC(C)NC(=O)NC(=O)COC(=O)CCOc1ccccc1	1.3	-11.9	120.5	-2.3
14	Cc1ccc(C2=CSC3=NCCN23)c(C)c1	-15.3	x	x	-0.9
15	CCCn1c(NCc2c[nH]c3ccccc23)nc2ccccc21	4.5	-50.7	113.2	-0.7
16	Cc1nonc1OCCNCCNc1ccccc1[N+](=O)[O-]	-2.7	-5.9	102.7	x
17	CCC(OC(=O)c1nsc(Cl)c1Cl)C(=O)NCc1ccco1 (stereo not given)	11.3	-19.4	56.6	-0.9
18	CCC(=O)NC(O)C(=O)c1ccc(C)cc1 (stereo not given)	2.5	-16.1	93.6	-0.7
19	C/C(=N/NC(=O)c1ccc(C)nc1)c1ccc2c(c1)CCCC2	1.3	15.0	108.9	x
20	O=C(O)c1cccc(S(=O)(=O)NCC2CCCO2)c1 (stereo not given)	1.5	0.0	119.6	-1.7
21	O=C(CNC(=O)c1ccccc1)OCc1nnc(-c2ccc(Cl)cc2)o1	-0.8	x	x	x
22	O=C1CC(c2ccccc2)CC(O)=C1C=NCC1CCCO1 (stereo not given)	-6.1	x	x	-0.9
23	O=c1cc(CSc2n[nH]c(-c3ccncc3)n2)nc2sccn12	-6.3	x	x	x
24	Cc1cc(C)cc(NC(=S)N(CCN(C)C)Cc2cccs2)c1	0.5	x	x	x

No.	HSV augment	HSV augment primary fold	RGS16-Gao HTS
13	i	1.03	98.3
14	i	0.97	100.0
15	i	1.02	315.8
16	i	0.97	107.7
17	i	1.03	78.0
18	i	0.94	100.1
19	i	0.95	110.1
20	i	0.91	98.6
21	i	1.02	94.3
22	i	0.95	101.3
23	i	0.94	96.0
24	i	0.85	85.1

Copied from above: entries 15 to 17
No.	SMILES	PKD1 inh	INS promoter inh	INS promoter inh cell count	GALR2 agonist
15	CCCn1c(NCc2c[nH]c3ccccc23)nc2ccccc21	4.5	-50.7	113.2	-0.7
16	Cc1nonc1OCCNCCNc1ccccc1[N+](=O)[O-]	-2.7	-5.9	102.7	x
17	CCC(OC(=O)c1nsc(Cl)c1Cl)C(=O)NCc1ccco1 (stereo not given)	11.3	-19.4	56.6	-0.9

No.	HSV augment	HSV augment primary fold	RGS16-Gao HTS
15	i	1.02	315.8
16	i	0.97	107.7
17	i	1.03	78.0

Further compounds
No.	SMILES	PKD1 inh	INS promoter inh	INS promoter inh cell count	GALR2 agonist
25	Cc1oc(-c2ccccc2)nc1C(=O)N1CCN(c2ccc(F)cc2)CC1	-1.6	x	x	x
26	COc1ccc(-c2cc(C(F)(F)F)nc(SCC(N)=O)n2)cc1	-12.6	-4.8	91.0	-1.0
27	c1ccc2sc(SCSc3nc4ccccc4s3)nc2c1	x	x	x	x
28	CC(OC(=O)c1nn(C)c(=O)c2ccccc12)C(=O)NCc1ccc2c(c1)OCO2 (stereo not given)	-5.0	25.0	85.7	-0.5
29	CCSc1ncc(C#N)c(=O)[nH]1	-14.5	-34.2	179.3	-1.5
30	CCN1CCN(c2ncc(C(=O)Nc3ccccc3C(=O)OC)c3ccccc23)CC1	-15.9	-61.5	128.9	-0.1
31	Cc1nn(Cc2ccc(C(=O)Nc3ccc(Br)c4cccnc34)o2)c(C)c1Br	-4.5	-331.2	58.3	-2.5
32	COc1ccc(/C=N/OCC(=O)N=Nc2c(O)[nH]c3ccc(Br)cc23)cc1OC	-6.2	59.3	75.2	-1.7
33	Cc1[nH]c2ccccc2c1-c1ccc(Cl)nn1	-4.8	26.8	164.2	x
34	N#CC1(c2ccccc2)CCC(=O)N1c1ccccc1 (stereo not given)	x	x	x	x
35	Cc1nc(-c2ccc(C(=O)Nc3cccc(Br)c3)cc2)cs1	5.3	x	x	x
36	CC1CCCC(C)N1C(=O)COc1ccccc1F (stereo not given)	-4.2	x	x	x

No.	HSV augment	HSV augment primary fold	RGS16-Gao HTS
25	i	0.99	95.7
26	i	1.01	97.4
27	i	1.06	96.4
28	i	0.99	101.0
29	i	0.88	98.3
30	i	0.947	136.6
31	x	x	x
32	i	0.88	111.3
33	i	0.9	104.2
34	i	0.91	107.6
35	i	0.85	97.8
36	i	1	113.2

(listing goes on)
No.	SMILES	PKD1 inh	INS promoter inh	INS promoter inh cell count	GALR2 agonist
37	Cc1ccc2nc3c(c(C(=O)OC4CCOC4=O)c2c1)CCCC3 (stereo not given)	3.2	26.7	116.6	x
38	N#Cc1cn(CCCOc2ccccc2)c2ccccc12	0.3	-4.8	92.5	-1.6
39	Cc1cc(N/N=C/c2cccc([N+](=O)[O-])c2)nc(-n2nc(C)cc2C)n1	x	x	x	x
40	O=C(Cn1nc(C(F)F)cc1C(F)F)NNC(=S)Nc1ccc(F)cc1	1.8	26.7	71.6	-0.8
41	CC1(C)Cc2cccc(OCC(=O)NCCOc3ccccc3)c2O1	5.5	30.0	118.2	x
42	COc1ccc(S(=O)(=O)N(C)C)cc1NC(=O)COC(=O)c1nc2nccc(C)n2n1	x	x	x	x
43	COc1ccc(CCN2CC(C(=O)Nc3ccc4c(c3)OCO4)CC2=O)cc1OC (stereo not given)	-2.5	18.8	98.8	x
44	C=C(C)C(=O)Nc1cccnc1Oc1ccc(F)cc1	x	x	x	x
45	COc1ccc(C(=O)OCn2nnc3ccccc3c2=O)cc1[N+](=O)[O-]	-1.4	9.1	105.5	x
46	CCCOC(=O)c1ccc(Oc2cn[nH]c2-c2ccc(O)cc2O)cc1	x	x	x	x
47	COc1ccc(CCNC(=O)NC2CCCCC2)cc1	-6.8	0.0	116.7	-1.9
48	C=CCNC(=O)NC(=O)COC(=O)CNS(=O)(=O)c1ccc(F)c(F)c1F	-5.6	x	x	x

No.	HSV augment	HSV augment primary fold	RGS16-Gao HTS
37	i	0.97	104.0
38	i	0.98	101.8
39	i	0.62	100.7
40	i	0.95	104.2
41	i	1.03	106.6
42	i	0.96	99.2
43	i	0.97	102.4
44	i	1.01	98.0
45	i	0.99	153.6
46	i	0.95	129.7
47	i	0.88	107.3
48	i	1.05	100.2

Reformatted: results already given
#	Compound	PKD1 inh	INS promoter inh	INS promoter inh cell count	GALR2 agonist	HSV augment	HSV augment primary fold	RGS16-Gao HTS
29	CCSc1ncc(C#N)c(=O)[nH]1	-14.5	-34.2	179.3	-1.5	i	0.88	98.3
24	Cc1cc(C)cc(NC(=S)N(CCN(C)C)Cc2cccs2)c1	0.5	x	x	x	i	0.85	85.1
41	CC1(C)Cc2cccc(OCC(=O)NCCOc3ccccc3)c2O1	5.5	30.0	118.2	x	i	1.03	106.6
18	CCC(=O)NC(O)C(=O)c1ccc(C)cc1 (stereo not given)	2.5	-16.1	93.6	-0.7	i	0.94	100.1
42	COc1ccc(S(=O)(=O)N(C)C)cc1NC(=O)COC(=O)c1nc2nccc(C)n2n1	x	x	x	x	i	0.96	99.2

Additional compounds follow.
No.	SMILES	PKD1 inh	INS promoter inh	INS promoter inh cell count	GALR2 agonist
49	CCc1ccc(OCC(=O)N/N=C(\C)c2ccccc2OC(F)F)cc1	-3.1	x	x	-1.2
50	O=C(CN1CCN(c2ccc(C(F)(F)F)cn2)CC1)Nc1ccc2c(c1)OCO2	x	x	x	x
51	COc1ccc2[nH]c3nc(SC(C)C)nnc3c2c1	-4.4	-196.8	113.1	-3.2
52	O=C(c1ccc(Cn2c(=S)[nH]c3ccc(N4CCOCC4)cc3c2=O)cc1)N1CCC(N2CCCCC2)CC1	-2.2	15.8	76.2	x
53	COc1ccc(CC(=O)N2CCCc3ccccc32)cc1	-6.7	-22.2	49.7	-2.6
54	CN(CC(=O)N1CCN(Cc2ccccc2)CC1)S(=O)(=O)c1cccc2nsnc12	-4.8	x	x	x
55	COc1cccc(/C=C2/SC(=O)N(CC(=O)N3CCc4ccccc4C3)C2=O)c1OCC(=O)O	-8.1	5.1	77.6	-1.4
56	O=C(Nc1ccc(NC(=O)c2ccco2)c(Cl)c1)c1ccccc1	8.2	x	x	x
57	CC(C)(C)c1ccc(/C=C/C(=O)c2ccc(NC3=NCCCS3)cc2)cc1	2.8	x	x	0.2
58	CCn1c(=NC(=O)c2ccc(S(=O)(=O)N(C)C)cc2)sc2cccc(OC)c21	-5.6	x	x	x
59	CCc1ccccc1S(=O)(=O)Cc1ccc(C(=O)N2CCN(c3ccccc3OC)CC2)o1	7.5	x	x	-1.8
60	C/C(=N/NC(=O)CNC(=O)c1cccnc1)c1ccco1	x	x	x	x

No.	HSV augment	HSV augment primary fold	RGS16-Gao HTS
49	i	0.69	109.7
50	i	0.98	91.4
51	x	x	127.2
52	i	0.86	102.1
53	i	1.1	92.7
54	i	0.78	98.0
55	i	0.96	108.7
56	i	0.8	109.3
57	i	0.84	106.7
58	i	0.87	102.5
59	i	0.86	103.5
60	i	1.13	95.5

Other results follow:
No.	SMILES	PKD1 inh	INS promoter inh	INS promoter inh cell count	GALR2 agonist
61	O=C(NC(C(=O)c1ccccc1)N1CCOCC1)c1cccs1 (stereo not given)	-9.1	11.7	126.8	-1.9
62	O=S(=O)(c1ccc(NC(=S)Nc2ccc3c(c2)OCO3)cc1)N1CCOCC1	-5.0	20.6	95.0	0.5
63	O=[N+]([O-])c1ccc(-c2csc(N/N=C/c3cccnc3)n2)cc1	-2.7	44.4	100.2	x
64	O=C(Cc1cccc2ccccc12)N1CCN(c2ncccn2)CC1	-0.9	x	x	x
65	CC1CCCCN1S(=O)(=O)c1cn(C)c(=O)n(C)c1=O (stereo not given)	-3.0	x	x	x
66	CC(=O)c1ccc(OCC(O)CN2CCN(Cc3ccccc3)CC2)cc1 (stereo not given)	-4.0	x	x	-3.1
67	O=C1C(Cl)=C(N2CCN(Cc3ccccc3)CC2)C(=O)N1Cc1ccccc1	-4.1	-8.6	91.7	-2.8
68	N#Cc1cc2c(nc1SCc1cccc(Cl)c1)CCCCC2	-5.0	7.0	103.2	-1.0
69	COc1ccc(C(=O)O)cc1S(=O)(=O)NCCCN1CCCC1=O	-10.7	x	x	-1.7
70	CCOC(=O)/C=C1\SCC(=O)N1CC(=O)NCCc1ccc(F)cc1	-4.0	x	x	x
71	CCc1nc(CNC(=O)c2cc(OC)c(OC)c(OC)c2)no1	-10.4	-2.6	142.1	0.2
72	O=C(NCc1ccco1)c1cc(-c2ccc(F)cc2)on1	2.5	x	x	-2.5

No.	HSV augment	HSV augment primary fold	RGS16-Gao HTS
61	i	0.82	101.8
62	i	1.05	102.1
63	i	1.1	103.9
64	i	0.95	99.5
65	i	0.91	86.1
66	i	0.89	102.0
67	i	0.74	92.7
68	i	0.99	110.8
69	i	1.09	98.9
70	i	0.92	94.5
71	i	0.88	106.2
72	i	1.08	101.0
